# Mtb growth: Mycobacterium tuberculosis H37Rv growth inhibition, cell based, confirmatory dose response (AID 1949); one-dose inhibition, % at 10 µg/mL; IC50 in µg/mL for titrated hits; most inactive calls were filed without a number and no value below 0 was filed; 100,000 compounds, 1.6% hits;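 active = confirmed in a dose series; inconclusive = about 50% or more but not retested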;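 also: bacteria grown 7 days with compound before Alamar blue readout; 0% = untreated bacteria and 100% = reference antibiotic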
# Active calls of the source: *; i = inactive; u = inconclusive. Some of the compounds tested; count on the stated rates, not on these rows.
mol	Mtb growth
CC(C(=O)N1CCCc2ccccc21)c1ccc([N+](=O)[O-])cc1 (stereo not given)	0%
COc1ccc(OC)c(NC(=O)c2cc(Cl)ccc2Cl)c1	2%
COc1ccc(-c2c3c(=O)n(C)c(=O)n(C)c3cn2-c2ccc(F)cc2)cc1	i
COc1ccc(-c2csc(NC(=O)CC(C)C)n2)cc1Br	1%
Cc1cc(OC(C)C(=O)Oc2ccc(F)cc2)ccc1Cl (stereo not given)	1%
Cc1nn(CCCNC(=S)Nc2cccc([N+](=O)[O-])c2)c(C)c1Br	6%
O=[N+]([O-])c1cccc(S(=O)(=O)Nc2cccc3ccccc23)c1	i
CCOC(=O)COc1ccc2c3c(c(=O)oc2c1OCC(=O)OCC)CCC3	i
O=C(c1ccc(Oc2ccc([N+](=O)[O-])cc2Cl)cc1)N1CCCC1	1%
Cc1c(Cl)cccc1NC(=O)CN1C(=O)C2C3CCC(C3)C2C1=O (stereo not given)	i

# Four entries from above, with each value named.
canonical_smiles: Cc1nn(CCCNC(=S)Nc2cccc([N+](=O)[O-])c2)c(C)c1Br
  Mtb growth = 6%
canonical_smiles: O=[N+]([O-])c1cccc(S(=O)(=O)Nc2cccc3ccccc23)c1
  Mtb growth = i
canonical_smiles: CCOC(=O)COc1ccc2c3c(c(=O)oc2c1OCC(=O)OCC)CCC3
  Mtb growth = i
canonical_smiles: O=C(c1ccc(Oc2ccc([N+](=O)[O-])cc2Cl)cc1)N1CCCC1
  Mtb growth = 1%

# (cont.)
mol	Mtb growth
CN(C)C(=O)c1cn(-c2ccccc2)nc1-c1cccs1	3%
COc1ccc(NC(=O)CSc2ncnc3scc(-c4ccc(Br)cc4)c23)c(OC)c1	i
COc1cccc(C2C(C(=O)c3cccs3)=C(O)C(=O)N2CCN2CCOCC2)c1 (stereo not given)	i
O=C(c1cccs1)N1CCCc2ccccc21	i
CCOC(=O)c1ccc(NC(=O)CSc2nnc(C(C)NC(=O)c3cccc(C)c3)n2C)cc1 (stereo not given)	i
Cc1c(C)c2ccc(OCC(=O)N3CCOCC3)c(C)c2oc1=O	i
N#CSCCCOc1ccc(Br)cc1	i
CCCc1ccc(OCC(=O)Nc2ccccc2C(N)=O)cc1	i
COc1ccccc1N1CCN(C(=O)Cc2nn(C)c(=O)c3ccccc23)CC1	i
COc1ccc2nc(/C(C#N)=C\c3cccn3-c3ccccc3F)[nH]c2c1	4.8µg/mL*
Cc1ccccc1C(=O)Nc1cccc(C(=O)Nc2ccccc2C(=O)O)c1	i
Cc1ccc(C)n1-c1cc(C(=O)O)ccc1O	i
Cc1cccc(OCC(=O)Nc2ccccc2F)c1	u
CC12CCC(C(=O)Nc3nc4ccccc4s3)(OC1=O)C2(C)C (stereo not given)	0%
CNCCCCOc1ccc(Cc2ccccc2)cc1	i
COC(=O)Cc1c(C)c2ccc(OCc3ccc(C(=O)OC)cc3)c(C)c2oc1=O	i
CCOc1cc(C=O)cc(Br)c1OC(=O)c1cccs1	1%
C=C(C)c1cccc(C(C)(C)NC(=O)NCC2COCCO2)c1 (stereo not given)	1%
CC1CN(CC(O)COc2ccccc2)CC(C)O1 (stereo not given)	4%
COc1ccc(Cn2c(=O)cc(C)[nH]c2=S)cc1	i
CCOc1ccc(OCCCOc2cccc(C)c2C)cc1	4%
CCc1ccc(CC)c(S(N)(=O)=O)c1	i
CC(C)c1ccc(C(=O)Nc2ccc([N+](=O)[O-])cn2)cc1	i
CCn1c(SCC(=O)Nc2ccc(C)cc2)nc2ccc(I)cc2c1=O	i
CC(NC(=O)Cn1cc(C=O)c2ccccc21)c1ccccc1 (stereo not given)	i
O=C(NC(NC(=S)Nc1ccc(Cl)cc1Cl)C(Cl)(Cl)Cl)c1ccccc1F (stereo not given)	2%
O=C(Nc1ccc(I)cc1C(=O)N1CCCC1)c1cccc2ccccc12	i
Cc1[nH]n(-c2ccccc2)c(=O)c1C1(C(F)(F)F)NC(=O)N(C)C1=O (stereo not given)	i
O=C(CSC1=NCCS1)Nc1ccnc2ccccc12	i
O=C1CC(N2CCc3ccccc3C2)C(=O)N1c1ccc(F)cc1 (stereo not given)	1%
CCOc1ccccc1NC(=S)Nc1ncccc1C	24%
COc1cc2ccccc2cc1C(=O)Nc1nc(-c2ccc(Cl)cc2)cs1	i
Cc1ccc(OCC(=O)NC(=S)Nc2cc(-c3nc4ncccc4o3)ccc2C)cc1C	i
COC(=O)c1ccc(NC(=O)CN(c2cc(C)ccc2OC)S(C)(=O)=O)cc1	i
S=c1[nH]nc2c3c4c(sc3n3c(=S)[nH]nc3n12)CCCC4	i
Cc1ccc(C(=O)NCCC2=CCCCC2)cc1C	i
O=c1cc(-c2ccccc2)nc(SCCOc2ccccc2Cl)[nH]1	1%
CC(CCc1ccccc1)NC(=O)Cc1cccc2ccccc12 (stereo not given)	i
Cc1ccc(C(=O)NCCC2=CCCCC2)c(C)c1	36%
O=C(C1CCCN1S(=O)(=O)c1ccccc1)N1CCCCC1 (stereo not given)	i
O=C(CCN1CCCCC1)Nc1ccc2c(c1)CCC2	1%
Cc1ccc(N(CC(=O)NC2CCCCCC2)S(C)(=O)=O)c(C)c1	i
O=C(NC(=S)NCc1ccco1)c1ccc(Br)o1	i
CCOC(=O)c1c(NC(=O)C2CCCO2)sc(C(=O)N(C)C)c1C (stereo not given)	i
COCCCNC(=O)CN(c1cccc(Cl)c1)S(=O)(=O)c1ccc(Cl)cc1	i
Cc1ccccc1CN1CCN(Cc2cccc(F)c2)CC1	i
COc1cccc(S(=O)(=O)Nc2cccc(Cl)c2)c1	i
Cc1nnc(SCC(=O)NCc2cccs2)n1-c1ccccc1	i
Cc1ccc(Cl)cc1N1CCN(S(=O)(=O)c2ccc(C(C)C)cc2)CC1	12%
O=[N+]([O-])c1ccc(-c2nc(=S)c3c(n2CCN2CCNCC2)CCCC3)cc1	i

# More entries:
mol	Mtb growth
O=C(CCc1ccccc1)Nc1ccc(S(=O)(=O)Nc2ccc(Cl)c(C(F)(F)F)c2)cc1	35%
CCOC(=O)C1=C(C)NC2=C(C(=O)CCC2)C1c1ccsc1 (stereo not given)	2%
O=C(c1c(F)c(F)c(F)c(F)c1F)N1CCN(C/C=C/c2ccccc2)CC1	i
Cc1ccc(C)c(N(CC(=O)Nc2ccc3ccccc3c2)S(C)(=O)=O)c1	3%
CC1CCN(c2cc(N)c(Cl)cc2[N+](=O)[O-])CC1	32%
Cn1c(CNC(=O)c2ccccc2Cl)nnc1SCC(=O)Nc1nccs1	1%
CSc1ccccc1C(=O)Nc1ccc(F)c(F)c1	i
Cc1ccc(-c2nc3ncccc3o2)cc1NC(=O)c1cccnc1	i
O=C(NCc1cccnc1)c1ccccc1-c1nc(-c2ccccc2Cl)no1	i
CCCOc1ccc(S(=O)(=O)NCCCN2CCOCC2)c2ccccc12	i
O=C(CN1C(=O)c2ccccc2S1(=O)=O)Nc1cccc(O)c1	i
O=c1c2c([nH]c(=S)n1Cc1ccco1)-c1ccccc1CC21CCCCC1	3%
CCOCCCNC(=S)Nc1ccc(OC)cc1OC	i
Cc1nc(NC(=O)c2ccc(C#N)cc2F)ccc1Br	i
Cc1ccc(-c2csc(NC(=O)C(F)(F)F)n2)cc1C	i
O=C(CSc1nc2ccccc2o1)c1cc2ccccc2oc1=O	i
Cn1c(SCC(=O)N2CCc3ccccc3C2)nc2ccccc21	8%
Cc1cc(C)c2c(COc3ccc4c(C)cc(=O)oc4c3)cc(=O)oc2c1	i
CC(=O)Nc1ccc(C(=O)Nc2cc(Cl)cc(Cl)c2)cc1	i
COc1ccc(-n2c(C)c(C(C)=O)c(C(C)=O)c2C)cc1	i

# Already shown: entries from further up.
mol	Mtb growth
O=C(CN1C(=O)c2ccccc2S1(=O)=O)Nc1cccc(O)c1	i
O=c1c2c([nH]c(=S)n1Cc1ccco1)-c1ccccc1CC21CCCCC1	3%

# Grouped by structure: those above containing bromine (7)
mol	Mtb growth
COc1ccc(-c2csc(NC(=O)CC(C)C)n2)cc1Br	1%
Cc1nn(CCCNC(=S)Nc2cccc([N+](=O)[O-])c2)c(C)c1Br	6%
COc1ccc(NC(=O)CSc2ncnc3scc(-c4ccc(Br)cc4)c23)c(OC)c1	i
N#CSCCCOc1ccc(Br)cc1	i
CCOc1cc(C=O)cc(Br)c1OC(=O)c1cccs1	1%
O=C(NC(=S)NCc1ccco1)c1ccc(Br)o1	i
Cc1nc(NC(=O)c2ccc(C#N)cc2F)ccc1Br	i

# The list continues.
canonical_smiles	Mtb growth
CC(=O)Nc1ccc(N2CCN(C(=O)c3ccc(C)cc3)CC2)cc1	i
CCOC(=O)c1sc(Nc2ccc(F)cc2)nc1C	2%
Cc1nc(=O)c(-c2ccccc2)c(C)n1CCN1CCOCC1	i
Cc1cc(=O)oc2cc(NC(=S)Nc3ccc4c(c3)CCC4)ccc12	i
O=C(O)c1ccc(NC(=O)c2ccccc2)c(NC(=O)c2ccccc2)c1	i
O=S(=O)(Nc1ccc(F)c(Cl)c1)c1ccccc1F	i
COc1cc(OC)cc(C2=NCCN2)c1	i
COC(=O)C1=C(C)N(Cc2ccccc2)C(=O)NC1c1ccc(F)cc1 (stereo not given)	3%
Cc1ccccc1OCC(=O)NC(=S)Nc1ccccc1F	3%
O=C(CSc1nnc2n(Cc3ccccc3)c(=O)c3c4c(sc3n12)CCC4)c1ccc(Br)cc1	i
C=CCn1c(SCC(=O)Nc2ccc(S(=O)(=O)NCCO)cc2)nc2sc(C)c(C)c2c1=O	i
Cc1cc(-c2ccccc2)n2ncnc2n1	7%
CCN(CC)S(=O)(=O)c1cc(C(=O)Nc2ccc(OC(F)(F)F)cc2)c(Cl)cc1Cl	i
Cc1ccc(OCc2ccc(C(=O)N3CCc4ccccc4C3)o2)cc1C	u
O=C(c1ccccc1)c1ccc2nc(-c3ccc(NC(=O)C4CC4)cc3)[nH]c2c1	11%
CCn1c(SCC(=O)Nc2cc(C)cc(C)c2)nnc1-c1cccc(C)c1	i
CCOC(=O)Nc1nnc(-c2ccc(C)c(C)c2)s1	1%
Cc1cccc(-c2noc(/C=C/c3ccccc3)n2)c1	i
CCOC(=O)c1ccc(NC(=O)CC2COc3ccccc3O2)cc1 (stereo not given)	41%
NC(=O)Cn1cnc2sc3c(c2c1=O)CCC3	i
Cc1ccc(C(=O)c2oc3ccccc3c2NC(=O)C(C)C)cc1F	i
CCOCc1nnc(NC(=O)c2c(-c3ccccc3)noc2C)s1	i
O=C(CN1CCOCC1)Nc1ccc([N+](=O)[O-])cc1	i
CCOC(=O)c1c(CN(C)C)n(C)c2cc(Br)c(OC(C)=O)cc12	i
COc1cc(NC(=O)c2ccccc2OC(C)=O)c(OC)cc1Cl	33%
Cc1cccc(C)c1OCC(=O)Nc1ccc(S(N)(=O)=O)cc1	i
Clc1ccc(-c2cc(-c3nnco3)[nH]n2)cc1	1%
COc1ccc2[nH]cc(CCNC(=O)Cc3cccs3)c2c1	i
O=C(c1ccccc1)N1CCN(C(=O)c2cc3ccccc3oc2=O)CC1	i
CCOC(=O)c1c(NC(=O)C23CC4CC(CC(C4)C2)C3)sc(C(=O)Nc2ccccc2F)c1C	2%
O=C(NCCN1CCOCC1)C(=O)Nc1cccc(Cl)c1Cl	i
Cc1cc(C)c(-n2nnnc2SCC(=O)Nc2nccs2)c(C)c1	i
CC(C)(C)c1csc(NC(=O)Cn2c(=O)oc3ccccc32)n1	1%
COc1ccc(S(=O)(=O)Nc2ccc3c(c2)OCO3)cc1Cl	i
CCC(Oc1ccccc1)C(=O)Nc1ccc(OC)c(OC)c1 (stereo not given)	i
CCCC(=O)Nc1cccc(NC(=O)c2cncc(Br)c2)c1	i
Cc1cc(=O)oc2cc(NC(=S)NNC(=O)C3(C)CC3(Cl)Cl)ccc12 (stereo not given)	i
CC(=O)Nc1ccc(NC(=O)CN(c2cccc([N+](=O)[O-])c2)S(C)(=O)=O)cc1	i
Cc1cc(C)nc(NC(=O)C(c2ccccc2)c2ccccc2)n1	0%
O=C(CCc1ccccc1)NC(c1ccc(Cl)cc1)c1ccc(Cl)cc1	i
FC(F)(F)c1cc(-c2ccc(Cl)cc2)n[nH]1	i
c1ccc2c(c1)n(CCN1CCCCC1)c1ncnn21	1%
O=C(c1cnn2c(C(F)(F)F)cc(-c3ccco3)nc12)N1CCC2(CC1)OCCO2	i
Cc1cccc(C(C)(C)C)c1OCCOCCN1CCCCC1	i
Cc1cccc(C)c1OCc1nnc(SCC(=O)NC2CCCCC2C)o1 (stereo not given)	i
S=c1[nH]nc(-c2ccccc2)n1C1CCCC1	1%
Cc1cc(C)nc(NC(N)=NCc2ccco2)n1	i
Cc1ccc2c(c1)C(C)CC(C)(C)N2C(=O)CSc1ncccn1 (stereo not given)	i
Cc1cc(Cl)ccc1NC(=S)NN1CCN(C)CC1	i
O=C(c1ccc2ccccc2c1)N1CCN(c2ccccc2)CC1	i
COc1ccccc1NC(=O)CN(c1ccccc1F)S(=O)(=O)c1ccc(C)cc1	i
CC(C)(C)C(=O)CSc1nc2ccccc2c(=O)n1-c1ccc(Br)cc1	i
COC(=O)c1sc(NC(=O)c2cc3ccccc3o2)c(C#N)c1C	11%
O=C(NCc1ccc(F)cc1)c1ccc2ccccc2c1	i
Cc1ccc(C(=O)Nc2cccc(C(=O)NC3CCCCC3)c2)cc1	i
COc1ccc(-c2cc(C(F)(F)F)c3c(=O)n(-c4ccccc4)[nH]c3n2)cc1	i
O=C1c2cccc3cccc(c23)C(=O)N1c1ccc(Oc2ccccc2)cc1	i
CC(=O)Nc1ccc(C2Nc3cc(C)c(C)cc3NC3=C2C(=O)CC(C)(C)C3)cc1 (stereo not given)	0%
Clc1cc2c(cc1CSc1nnnn1-c1ccccc1)OCO2	i
Cn1nnc(NC(=S)NC(=O)Cc2ccccc2)n1	i
CCOC(=O)CNC(=O)c1cc(OC)c(OC)cc1[N+](=O)[O-]	i

# Source: PubChem
